GLA inh pH 4.5 = blocks human alpha-galactosidase A at pH 4.5; P06280; purified enzyme, 4-MU-alpha-Gal fluorescence, pH 4.5; activity change, negative = inhibition, % at 105 µM; 230,000 tested, under 10 active; AID 1467; inconclusive = small, poorly fitted or top-dose-only inhibition, or a rising curve; inactive = flat fitted curve, though single readings scatter; no compound was filed as active;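 also: 0% = full activity with enzyme and -100% = basal without enzyme; dose as in the result columns while the protocol names 77 µM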
Target sequence (P06280 whole entry, looked up): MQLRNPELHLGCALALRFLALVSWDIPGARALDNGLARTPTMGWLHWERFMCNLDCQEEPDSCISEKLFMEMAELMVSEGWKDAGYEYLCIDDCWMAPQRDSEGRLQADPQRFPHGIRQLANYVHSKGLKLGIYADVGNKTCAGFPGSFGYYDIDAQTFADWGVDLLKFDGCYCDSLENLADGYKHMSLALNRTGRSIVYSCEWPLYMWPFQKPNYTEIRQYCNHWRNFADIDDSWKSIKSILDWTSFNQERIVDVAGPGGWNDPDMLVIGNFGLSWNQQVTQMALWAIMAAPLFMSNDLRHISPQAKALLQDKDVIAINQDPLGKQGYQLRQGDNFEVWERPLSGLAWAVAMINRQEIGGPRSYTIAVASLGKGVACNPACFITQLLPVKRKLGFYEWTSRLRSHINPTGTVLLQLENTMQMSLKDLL
Rango complex inh = inhibitors of Rango-importin beta complex formation. actives 0.031% (n = 340,000). Q14974. Rango CFP/YFP FRET sensor + importin beta, 45 min. AID 540263. Potency, µM (series often up to 92.2 µM), for the others: at the top dose inhibition of complex formation; active = rising FRET ratio curve, often small or poorly fitted; inconclusive = mostly compound fluorescence or quenching in the first reads; inactive = flat curves in all reads;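 also: potency is read from the fitted curve at half-maximal effect; 0% = DMSO wells and 100% = buffer wells lacking importin beta; nearly all actives have a fitted effect of over 15% in size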
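FRET biosensor Rango (snurportin 1 IBB between N-terminal EYFP and C-terminal Cerulean), 50 nM in PBS/1 mM DTT/0.02% Tween-20/0.1% BSA, preincubated 5 min RT with compound; 0.125 microM importin beta added, 45 min RT, CFP/YFP FRET ratio read.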
miR-21 reporter = raises the signal of a miR-21 reporter | HeLa miR-21 FLuc reporter, luciferase, 48 h | Potency, µM (top dose mostly 38.3 µM), inactives show at the highest dose reporter change, positive = more light | 340,000 tested, under 10 active; active = well fitted rising curve with a large enough effect; inconclusive = small, poorly fitted or top-dose-only effect; inactive = no such curve, though single readings can be large or run the other way;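 also: % of control where 0% means no effect; miR-21 action dims this reporter so a rising signal means less miR-21 action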
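HeLa cells stably expressing CMV-driven firefly luciferase with a downstream miR-21 binding sequence, endogenously expressing miR-21, were treated with titrations (up to about 40uM final) for 48 hours at 37 degree Celsius. Luciferase luminescence was read after lysis.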
Rango dissoc inh = prevents RanGTP from dissociating the Rango-importin beta complex; O95149+P62826; Biochemical FRET Rango-importin beta, RanGTP-induced dissociation; Potency, µM (highest dose often 46.1 µM), for the others: at the highest dose activity change, negative = inhibition; actives 0.071% (n = 340,000); AID 540253; active means falling FRET ratio curve, often poorly fitted, with flat reads before Ran was added; inconclusive means other falling curves, or compound fluorescence or quenching; inactive means flat or rising ratio curve;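 also: potency is read from the fitted curve at half-maximal effect; % of control where 0% means no effect; nearly all actives have a fitted effect of over 45% in size; -100% = wells without RanGTP and RCC1; the record marks most hits as doubtful in a second field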
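Compounds sat 5 min at room temperature with 0.1 uM Rango biosensor plus 0.25 uM importin beta, then FRET pre-read. RanGTP-RCC1 (0.6 uM Ran, 2mM GTP, 0.2 uM RCC1) added for 45 min, and the CFP/YFP post-read measured blocked complex dissociation.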
* = called active by the depositor; ? = inconclusive; . = not tested or not shown; & = joins results of further samples. Not all compounds are listed. The share of hits here may be higher or lower than overall.

Abbreviations – A = GLA inh pH 4.5; B = Rango complex inh; C = miR-21 reporter; D = Rango dissoc inh
1	COc1ccc(C(=O)C2CCCN(Cc3nc4ccccc4nc3C)C2)cc1OC (centres undefined)
  A: 0	B: -2.7%	C: 2%	D: 0%
2	O=C(NCCc1ccncc1)Nc1ccc(Cl)cc1
  A: -3	B: 0.1%	C: -6%	D: -9%
3	CSCCC(NC(=O)c1ccco1)C(=O)N1CCC(C(N)=O)CC1 (centres undefined)
  A: .	B: -1.8%	C: .	D: -9%
4	Cc1nc(=O)c(-c2ccccc2)c(C)n1-c1ccccc1Cl
  A: .	B: -4.3%	C: .	D: -1%
5	CCN(C(=O)COC(=O)c1cc2c(s1)CCCCC2)C1CCS(=O)(=O)C1 (centres undefined)
  A: .	B: -2.1%	C: -9%	D: -11%
6	CC(=O)N[C@@H](Cc1c[nH]c2ccccc12)C(=O)OCC(=O)Nc1ccc2c(c1)OCO2
  A: .	B: -4.7%	C: .	D: 6%
7	CCc1nc(CN2CCN(Cc3ccc(F)c(F)c3)C(CCO)C2)c(C)[nH]1 (centres undefined)
  A: -2	B: -0.6%	C: 0%	D: -5%
8	CC(=O)c1cccc(NC(=O)c2cccc(NC(=O)c3ccco3)c2)c1
  A: .	B: -4.5%	C: 0%	D: -11%
9	Fc1ccc(-n2cc(-c3ccccc3)c3c(N4CCOCC4)ncnc32)cc1
  A: 5	B: 0.4%	C: 15%	D: -4%
10	COCc1cc(C)nc(N2CCNCC2)c1C#N
  A: -9	B: 3.7%	C: -4%	D: 2%
11	CCCCNC(=O)C1CCCN1S(=O)(=O)c1cccc2nsnc12 (centres undefined)
  A: 6	B: 1.8%	C: 3%	D: -5%
12	Cc1ccc(NC(=O)CNC(=O)Cc2cccc3ccccc23)nc1
  A: .	B: -0.9%	C: 0%	D: -16%
13	CC(C)(C)c1cc(C(=O)NNS(=O)(=O)c2ccccc2)n[nH]1
  A: 3	B: ?	C: -24%	D: -36%
14	CCOc1ccc(NC(=O)Cn2nnc(-c3ccccc3NC(=O)c3cccs3)n2)cc1
  A: -7	B: 3.8%	C: -1%	D: -10%
15	O=[N+]([O-])c1ccc(N2CCCC2)nc1
  A: -18	B: 0.2%	C: -3%	D: 15%
16	COc1ccc(CCN2CC(C(=O)N(C)CCn3nc(C)cc3C)CCC2=O)cc1 (centres undefined)
  A: .	B: 11%	C: -1%	D: -12%
17	Cc1onc(-c2c(F)cccc2Cl)c1C(=O)NCc1ccc(F)cc1
  A: .	B: 0.1%	C: -10%	D: 2%
18	CCOC(=O)C1=C(C)N(CCCCCC(=O)O)C(=O)NC1c1ccccc1OS(=O)(=O)c1ccc(C)cc1 (centres undefined)
  A: .	B: -0.5%	C: .	D: 8%
19	O/N=C/C1=C(Cl)c2ccccc2CC1
  A: -10	B: ?	C: -14%	D: -18%
20	N#Cc1c(-c2ccccc2)nc(SCC(=O)Nc2ccccc2)[nH]c1=O
  A: 0	B: ?	C: -4%	D: 2%
21	Cc1cccc(NS(=O)(=O)c2cccc(C(=O)N3CC(C)OC(C)C3)c2)c1 (centres undefined)
  A: .	B: -3.5%	C: .	D: 11%
22	CC(=O)Nc1ccc(NC(=O)C(C)Oc2ccccc2F)cc1 (centres undefined)
  A: -6	B: 1.9%	C: -20%	D: 13%
23	CCOc1ccccc1Oc1cn[nH]c1-c1ccc(OCC(=O)NN)cc1O
  A: .	B: -1.7%	C: 8%	D: -11%
24	COC(=O)N/N=C/c1ccc([N+](=O)[O-])s1
  A: -6	B: 0.6%	C: 19%	D: -13%
25	CCN1CCN(Cc2ccc(NC(=O)c3cc(NC(=O)c4cnn(-c5ccccc5)c4N)cc(OC)c3)cc2C(F)(F)F)CC1
  A: -1	B: 1.3%	C: -7%	D: 4%
26	Cc1ccc(NC(=O)C2CCCN(C(=O)c3ccc(Cl)cc3)C2)c(C)c1 (centres undefined)
  A: 3	B: 1.8%	C: -3%	D: -16%
27	Cc1c(C)n2c(SCC(=O)NC3CCCCC3)nnc2[nH]c1=O
  A: .	B: 6.1%	C: .	D: -8%
28	C[C@H](CO)N1C[C@H](C)[C@@H](CN(C)Cc2ccccc2)Oc2ccc(NC(=O)CCCCCC(=O)Nc3ccccc3N)cc2C1=O
  A: .	B: 0.1%	C: .	D: 11%
29	Cc1cc(C)c(NC(=O)CSc2nc3ccc(NC(=O)CSc4nnnn4-c4ccccc4)cc3s2)c(C)c1
  A: 6	B: 1.7%	C: 1%	D: 18%
30	COCCNS(=O)(=O)c1ccc(C)c(C)c1C
  A: -6	B: -3.3%	C: -4%	D: 10%
31	COc1ccc(OCc2nnc(SCC(=O)c3c(N)n(C)c(=O)n(C)c3=O)n2-c2ccccc2F)cc1
  A: -1	B: .	C: 2%	D: .
32	COc1cccc(CNC(=O)C2CCCN(S(=O)(=O)c3cccc4nonc34)C2)c1 (centres undefined)
  A: 6	B: 1.3%	C: -8%	D: -2%
33	O=C(O)c1ccc2c(c1)NC(=O)C(N1CCCC1)S2 (centres undefined)
  A: -6	B: 2.4%	C: -4%	D: -18%
34	CC(=O)Nc1nc(S(=O)(=O)c2ccc(C)cc2)c(Cl)s1
  A: -1	B: 0.4%	C: 0%	D: 0%
35	O=C(O)c1cc(NC(=S)NC(=O)C(c2ccccc2)c2ccccc2)ccc1Cl
  A: 4	B: -2.5%	C: -4%	D: 44%
36	CCOC(=O)c1[nH]c(C)c(C(=O)N2CCN(c3ccccc3OC)CC2)c1C
  A: -6	B: 0.1%	C: -4%	D: 2%
37	COc1ccccc1C(=O)NCCC(=O)NC1CCC(C)CC1 (centres undefined)
  A: .	B: 3.4%	C: .	D: 0%
38	COc1ccc(-c2sc(NC(C)=O)nc2-c2ccccc2)cc1
  A: -2	B: 1.2%	C: 6%	D: -10%
39	CCN1CCN(C(=O)CSc2nc3c(c(=O)n(C)c(=O)n3C)n2C)CC1
  A: .	B: -0.6%	C: 0%	D: 4%
40	COc1cccc(NC(=O)Nc2cc(C(=O)NCC3CCCO3)ccc2N2CC3CC(C2)c2cccc(=O)n2C3)c1 (centres undefined)
  A: .	B: 0.5%	C: -7%	D: 0%
41	c1ccc2[nH]c(CN3CCOCC3)nc2c1
  A: 9	B: -3.6%	C: -8%	D: -7%
42	Cn1c(=O)c2sccc2n2c(CCCC(=O)NCCc3ccc(S(N)(=O)=O)cc3)nnc12
  A: .	B: 1.9%	C: 8%	D: 1%
43	Cc1nn(Cc2ccccc2)c(C)c1NC(=O)CSc1n[nH]c(C)c1[N+](=O)[O-]
  A: 0	B: -0.4%	C: -9%	D: -26%
44	O=C(Nc1ccc(Cl)cc1)N1CCOC12CCCCC2
  A: 3	B: 4.2%	C: -14%	D: 3%
45	CCn1c(SCC(=O)Nc2nccs2)nnc1-c1ccncc1
  A: 8	B: 3.1%	C: -1%	D: 4%
46	Cc1ccc(NS(=O)(=O)c2ccc(C(=O)NCc3cccnc3)cc2)cc1
  A: .	B: -0.4%	C: -49%	D: 17%
47	CCCc1cc(=O)oc2cc(C)cc(OCC(=O)NCc3ccccn3)c12
  A: .	B: -0.9%	C: -1%	D: 3%
48	CS(=O)(=O)NCCSCc1ccco1
  A: 10	B: 1.1%	C: -4%	D: -9%
49	Cc1oc(-c2ccc(Cl)cc2)nc1CN1CCCC(C(=O)NCc2cccnc2)C1 (centres undefined)
  A: -10	B: 2.1%	C: 19%	D: -3%
50	C=CCc1cccc(CNc2ccc(Br)cc2)c1O
  A: -3	B: 0.6%	C: -3%	D: 2%
51	COCCOC(=O)C1=C(C)Nc2ncnn2C1c1ccccc1 (centres undefined)
  A: 3	B: 2.7%	C: 0%	D: -16%
52	CC12CCC(C(=O)NCc3ccccc3Cl)(C(Br)C1=O)C2(C)C (centres undefined)
  A: -6	B: -0.7%	C: 3%	D: -12%
53	CS(=O)(=O)c1ccc2nc(NC(=O)c3cc([N+](=O)[O-])cc([N+](=O)[O-])c3)sc2c1
  A: .	B: ?	C: -10%	D: -1%
54	O=c1c2ccccc2nc(SCc2cccc(F)c2)n1C1CCCC1
  A: -4	B: -2.3%	C: -3%	D: 10%
55	COc1ccc(N2CCN(CC(=O)Nc3nc4c(s3)CC(C)CC4)CC2)cc1 (centres undefined)
  A: 8	B: -0.5%	C: 0%	D: 9%
56	CCOc1ccc(NC(=O)NCCN2CCN(c3ccccc3F)CC2)cc1
  A: .	B: 1.0%	C: -1%&-2%	D: 8%
57	Cc1ccc(CSc2nnc(NC(=O)Cn3cnc4ccccc4c3=O)s2)cc1
  A: 9	B: -0.4%	C: -6%	D: -2%
58	CCn1c(=O)c(C(=O)NCCN2CCCCC2)c(O)c2ccccc21
  A: 6	B: -0.5%	C: -15%	D: -8%
59	Cc1nc2sc(C(c3cccs3)N3CCN(c4ccccc4)CC3)c(O)n2n1 (centres undefined)
  A: 12	B: -2.0%	C: -1%	D: 1%
60	Cc1ccc(NC(=O)CSc2nnc(-c3cccs3)o2)cc1S(=O)(=O)N1CCCCC1
  A: 2	B: 0.2%	C: -3%	D: 2%

Next part
Abbreviations – A = GLA inh pH 4.5; B = Rango complex inh; C = miR-21 reporter; D = Rango dissoc inh
61	O=C(COC(=O)c1ccc(S(=O)(=O)NCc2ccco2)cc1)Nc1ccc(OC(F)F)cc1
  A: 2	B: -0.6%	C: -4%	D: 8%
62	COc1cccc(N2CCN(Cc3nc4scc(-c5ccccc5)c4c(=O)[nH]3)CC2)c1
  A: 6	B: 2.5%	C: 17%	D: -23%
63	Nc1ccc2oc(-c3ccc4nc[nH]c4c3)nc2c1
  A: -4	B: 0.2%	C: -6%	D: -13%
64	Cc1ccc(CCN2CC(C(=O)NC3CCCCC3)CC2=O)cc1 (centres undefined)
  A: .	B: 2.8%	C: -7%	D: -1%
65	Cc1c(Cl)cccc1NC(=O)CSc1sc2c(O)cc(=O)[nH]c2c1C#N
  A: .	B: 0.4%	C: -2%	D: -18%
66	Cc1ccc(S(=O)(=O)N2CCOCC2)cc1NC(=O)COC(=O)c1ccc(Br)cc1
  A: .	B: -1.7%	C: .	D: 0%
67	O=C(COc1ccccc1Cl)NCc1ccncc1
  A: 4	B: -4.1%	C: -3%	D: 15%
68	O=C(Nc1ccc(F)c(F)c1)c1cnc(-c2ccccc2)nc1-c1ccccc1
  A: -4	B: -5.2%	C: -7%	D: 3%
69	CCn1c(=NC(=O)CCS(=O)(=O)c2ccccc2)sc2cccc(OC)c21
  A: .	B: -1.7%	C: 5%	D: -10%
70	Cc1nc2ccccc2c2nc(N)nn12
  A: -2	B: -3.6%	C: -12%	D: 13%
71	Cc1cccc(-c2n[nH]c(=S)n2/N=C/c2cccs2)c1
  A: -3	B: -0.1%	C: -6%	D: 1%
